B2AR ag: beta2AR agonists driving receptor internalization, primary screen, cell-based, FAP fluorogen, flow cytometry | response, % (test concentration not listed) | hit rate 0.43% among 340,000 | Beta-2 adrenergic receptor (Homo sapiens), P07550 | Am2.2-beta2AR cells; reference of the scale not given here;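 active = response above a set limit, near 3 SD of response in nonfluorescent compounds, cut at about 42% in these data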;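 also: stock transfer was 100 nL into about 11 µL; a reference agonist was the positive control; negative values mostly stem from fluorescent compounds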
Target sequence (P07550 whole entry, looked up): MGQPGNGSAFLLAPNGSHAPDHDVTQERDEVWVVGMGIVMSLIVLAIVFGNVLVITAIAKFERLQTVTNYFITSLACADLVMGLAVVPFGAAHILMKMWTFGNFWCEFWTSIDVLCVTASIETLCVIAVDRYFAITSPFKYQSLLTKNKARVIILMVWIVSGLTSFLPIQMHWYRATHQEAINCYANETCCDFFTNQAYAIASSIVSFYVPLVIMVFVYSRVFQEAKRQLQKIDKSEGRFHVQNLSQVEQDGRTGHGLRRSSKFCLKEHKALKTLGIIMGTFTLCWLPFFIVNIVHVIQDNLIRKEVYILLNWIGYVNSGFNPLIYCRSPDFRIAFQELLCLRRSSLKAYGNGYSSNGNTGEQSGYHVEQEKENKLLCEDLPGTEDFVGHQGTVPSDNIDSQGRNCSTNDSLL
HNF4A DNA FP: change in binding of human HNF4A to DNA, primary screen, biochemical, fluorescence polarization, FITC-DNA; Hepatocyte nuclear factor 4-alpha (Homo sapiens), P41235; hit rate 0.3% among 360,000; 1 h; activity change, % at 10 µM; in the data active = activity change above about 30%, passing the limit was not always enough;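 also: controls were the assay level and a saturating level of protein; the project sought stronger binding though the title names inhibitors; some compounds called inactive have numbers as strong as hits; positive values seem to mean higher polarization but the record does not say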
ALR inh: inhibitors of human ALR sulfhydryl oxidase, primary screen, biochemical, H2O2 detection, HRP-luminol luminescence, single point; FAD-linked sulfhydryl oxidase ALR (Homo sapiens), P55789; purified ALR, DTT oxidation; inhibition, % (concentration not given with the values); hit rate 3.8% among 290,000;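 active = mean and each replicate at 75% or more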;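 also: stock transfer was 7.5 nL into about 7.5 µL; 0% = neutral wells and 100% = wells with inactivated enzyme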
Target sequence (P55789 whole entry, looked up): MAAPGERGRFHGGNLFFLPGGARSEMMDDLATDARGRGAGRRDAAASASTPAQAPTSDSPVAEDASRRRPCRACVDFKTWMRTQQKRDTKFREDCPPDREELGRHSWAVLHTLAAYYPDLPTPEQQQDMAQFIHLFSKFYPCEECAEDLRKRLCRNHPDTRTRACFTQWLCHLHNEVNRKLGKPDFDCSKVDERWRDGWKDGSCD
FGF22 binding: binders of human FGF22 protein, primary screen, FGF22 synaptogenesis inhibitor project, biophysical, thermal shift, single point; Fibroblast growth factor 22 (Homo sapiens), Q9HCT0; recombinant FGF22 thermal shift, SYPRO orange fluorescence; percent of sucrose octasulfate shift, DMSO zero; calls only at 9.99 µM; hit rate 1.5% among 340,000;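 active = melting point raised past a set limit in the mean and every replicate; three in four hits are not shown here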
Ecoli growth: E. coli growth inhibition, primary screen, OD600. Escherichia coli growth, 23 h; stronger effect = lower value. hit rate 0.21% among 330,000. AID 1053175, 2014. OD600 absorbance (no concentration beside the values);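 active = OD600 absorbance below the run mean of sample wells minus 3.6 SD, in any replicate, cut at about 0.56 in these data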;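 also: stock transfer was 300 nL into about 60 µL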
UCH37 inh: inhibitors of human UCH37 deubiquitinase, primary screen, biochemical, Ub-AMC cleavage, fluorescence; purified proteasome/UCH37; inhibition, % (test concentration not listed); hit rate 0.33% among 330,000; AID 588478, 2011;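 active = mean of two replicates above 20%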;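 also: 0% = compound-free wells with enzyme and 100% = wells lacking proteasome; stock transfer was 100 nL into about 20 µL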
Target sequence (Q9Y5K5 whole entry, looked up): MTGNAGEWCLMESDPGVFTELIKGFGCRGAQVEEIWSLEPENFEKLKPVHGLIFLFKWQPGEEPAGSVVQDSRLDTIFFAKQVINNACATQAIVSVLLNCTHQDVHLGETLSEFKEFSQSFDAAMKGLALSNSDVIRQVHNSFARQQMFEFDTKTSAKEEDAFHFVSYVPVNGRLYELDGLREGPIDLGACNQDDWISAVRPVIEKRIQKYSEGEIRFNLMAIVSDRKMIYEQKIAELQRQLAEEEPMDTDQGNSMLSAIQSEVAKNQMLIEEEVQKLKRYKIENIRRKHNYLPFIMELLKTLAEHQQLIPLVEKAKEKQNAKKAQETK
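Test system – human UCH37 enzyme supplied as purified proteasome complex · Incubation – 30 min preincubation with enzyme, 25 min cleavage at room temperature · Detection – AMC fluorescence from Ub-AMC cleavage, excitation 355 nm, emission 460 nm · Benchmarks – no-proteasome wells (full inhibition) and compound-free wells (no inhibition)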
Ecoli rRNA inh: reduced GFP signal of wild-type E. coli, primary screen, bacterial rRNA inhibitor project, GFP/RFP fluorescence, OD600, single point; E. coli WT GFP vs humanized-ribosome RFP mutants, 24 h; stronger effect = lower value; DMSO median 0, no signal -100; GFP signal change (wild-type ribosome), % (test concentration not listed); hit rate 1.6% among 350,000; AID 720706, 2013;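 active = significant combined selectivity score with lowered wild-type GFP, culture density cut under 30%, mutant RFP and density less affected; inactive = any of these conditions unmet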; also: one replicate is shown; some compounds called inactive have numbers as strong as hits
Ecoli rRNA inh OD600: also measured in Ecoli rRNA inh; calls as there; OD600 change, %; measured here: OD600 growth;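 optical density of the mix in the first replicate; 0 = DMSO median and -100 = no signal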
Ecoli rRNA inh RFP: further read-out of Ecoli rRNA inh, marked with its call; RFP signal change, %; measured here: RFP humanized mutant strains;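 first replicate; 0 = DMSO median and -100 = no signal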
The depositor's hits bear a star; i = inactive; . = not tested or not shown. A portion of the library, so the mix of outcomes need not match the whole.

SMILES | B2AR ag | HNF4A DNA FP | ALR inh | FGF22 binding | Ecoli growth | UCH37 inh | Ecoli rRNA inh | Ecoli rRNA inh OD600 | Ecoli rRNA inh RFP
COC(/C=C/Nc1ccc(C)c(C)c1)=C(C#N)C#N | 12 | -0.3 | -2 | . | 0.68 | 1.4 | . | . | .
CCCn1nc2cc(C(=O)NCCc3cccs3)ccc2c1OCC | 3 | -1.0 | 2 | i | 0.69 | -61 | 7 | 5 | 2.3
Cc1cc(=O)oc2cc(OCC(=O)NCC3CCCO3)ccc12 (stereo not drawn) | -2 | -2.5 | 2 | i | 0.7 | -4.6 | 6 | 1 | 0.4
Cc1cc(N2CCN(S(=O)(=O)c3ccc(Cl)cc3)CC2)c2ccccc2n1 | -1 | 0.0 | -1 | . | 0.69 | 5.7 | . | . | .
CCOC(=O)CSc1n[nH]c(=S)s1 | -5 | 0.6 | . | . | 0.67 | 2.7 | 0 | 4 | 1.6
COc1ccc(NC2CCCN(C(=O)c3ccc(C)c(N4CCNC4=O)c3)C2)cc1 (stereo not drawn) | -1 | 5.1 | 98* | i | 0.68 | 6.1 | 13 | 17 | 0.5
CS(=O)(=O)N(CC(=O)NCCSCc1c(F)cccc1Cl)c1ccc2c(c1)OCO2 | 1 | -4.9 | -8 | . | 0.71 | -2.6 | . | . | .
Cc1nc2ccccc2n1C(=O)N1CCOCC1 | -2 | -3.2 | -6 | . | 0.71 | -0.4 | . | . | .
O=C(CNc1ccccc1N1CCCC1=O)Nc1cc(Cl)ccc1-n1cncn1 | -10 | -3.1 | . | i | 0.68 | 2.7 | 5 | 12 | -1.8
COc1ccc(-n2ncc3c(=O)n(CC(=O)N4c5ccccc5CC4C)cnc32)cc1 (stereo not drawn) | -2 | -0.8 | . | . | 0.7 | -0.5 | . | . | .
CCc1nc2ccc(C(=O)Nc3ccc(OC)c(OC)c3)cn2c1N(C)C(=O)Cc1ccccc1 | . | -0.3 | . | i | . | . | 13 | 9 | 1.4
O=C(CCNS(=O)(=O)c1ccc(OC(F)(F)F)cc1)NC1CC1 | 0 | 3.7 | -16 | i | 0.68 | 2.1 | 7 | 17 | 4.9

The last 4 records of the section before are carried over, then new ones follow:
SMILES | B2AR ag | HNF4A DNA FP | ALR inh | FGF22 binding | Ecoli growth | UCH37 inh | Ecoli rRNA inh | Ecoli rRNA inh OD600 | Ecoli rRNA inh RFP
O=C(CNc1ccccc1N1CCCC1=O)Nc1cc(Cl)ccc1-n1cncn1 | -10 | -3.1 | . | i | 0.68 | 2.7 | 5 | 12 | -1.8
COc1ccc(-n2ncc3c(=O)n(CC(=O)N4c5ccccc5CC4C)cnc32)cc1 (stereo not drawn) | -2 | -0.8 | . | . | 0.7 | -0.5 | . | . | .
CCc1nc2ccc(C(=O)Nc3ccc(OC)c(OC)c3)cn2c1N(C)C(=O)Cc1ccccc1 | . | -0.3 | . | i | . | . | 13 | 9 | 1.4
O=C(CCNS(=O)(=O)c1ccc(OC(F)(F)F)cc1)NC1CC1 | 0 | 3.7 | -16 | i | 0.68 | 2.1 | 7 | 17 | 4.9
CC1CN(N=Cc2ccc([N+](=O)[O-])o2)C(=N)O1 (stereo not drawn) | -3 | 1.4 | . | i | 0.065* | 12 | -4 | 6 | -6.9
Cc1cccc(-c2c(NC(=O)c3ccco3)oc3ccc(Cl)cc3c2=O)c1 | -6 | -2.2 | 23 | i | 0.6 | 4.9 | -5 | 2 | -6.4
CCc1ccc(-c2cc(C)no2)cc1S(=O)(=O)Nc1cccc(CN2CCCC2)c1 | -1 | -4.7 | -1 | i | 0.67 | 5.3 | 14 | 6 | 3.7
CN1CCC=C(C(=O)N2c3ccccc3Sc3ccc(Cl)cc32)C1 | -17 | 2.5 | 12 | i | 0.65 | 6.3 | -22* | -4.4* | 2.8*
O=C(Cn1c(=O)n(-c2cccc(Cl)c2)c(=O)n1CC(=O)N1CCCCC1)N1CCCCC1 | 4 | 1.2 | -21 | . | 0.77 | -0.7 | . | . | .
CCOc1ccc2oc(C(=O)NCC(c3ccco3)N(C)C)c(C)c2c1 (stereo not drawn) | 1 | 1.0 | . | i | 0.69 | -9.7 | -3 | 1 | 1.0
CCN(C(=O)CSc1nnc(-c2ccccc2Br)o1)C1CCS(=O)(=O)C1 (stereo not drawn) | 6 | -0.5 | -14 | i | 0.6 | -1.7 | 11 | 3 | 1.5
COc1ccc(N(C(=O)CNC(=O)c2ccco2)C(C(=O)NC2CCCC2)c2ccco2)cc1 (stereo not drawn) | -10 | -3.7 | . | i | 0.67 | 4.2 | 0 | 2 | -1.7
Nc1nnn(CC(=O)N/N=C/c2ccccc2Cl)n1 | 3 | -0.2 | -3 | i | . | . | 10 | 11 | -4.5
O=C(Cc1cccc(C(F)(F)F)c1)N1CCCC1 | -1 | 1.2 | -8 | i | 0.65 | -2.5 | 11 | 24 | 1.3
COc1ccccc1-n1cnnc1SCC(=O)NC1CCCC1 | -10 | -2.6 | -2 | i | . | . | . | . | .
CCCCn1c(NCc2ccncc2)nc2ccccc21 | 17 | -4.7 | 23 | i | 0.69 | 1.8 | -7 | 2 | -2.5
COc1ccccc1C1C(C(C)=O)=C(O)C(=O)N1c1ccc(O)cc1 (stereo not drawn) | -1 | 3.8 | 7 | i | 0.7 | 7.4 | 19 | 16 | -0.5
COc1cc(OC)cc(C(=O)N2CCN(Cc3cccc(F)c3)CC2)c1 | 4 | -0.8 | 4 | . | 0.71 | 2.2 | . | . | .
CCN(CC)S(=O)(=O)c1ccc2[nH]c(=O)cc(C(=O)NCC(c3ccco3)N3CCCC3)c2c1 (stereo not drawn) | 8 | 1.6 | -8 | i | 0.7 | -5.2 | 4 | 12 | 0.4
O=C(Nc1ccc(F)cc1)C(NC1CCCCC1)c1ccccc1 (stereo not drawn) | -7 | -2.4 | . | i | 0.71 | 2.5 | -22 | -31 | 2.9
Cc1ccc(CNC(=O)CNC(=O)[C@@H]2Cc3ccccc3CN2C(=O)OC(C)(C)C)cc1 | -6 | 0.5 | -42 | i | 0.66 | 4.3 | -19 | -19 | -2.4
NC1=NN=C(N2N=C(c3ccco3)CC2(O)C(F)(F)F)n2ncnc2C1 (stereo not drawn) | 0 | 0.4 | . | . | 0.71 | -2.4 | 24 | 14 | 1.5
CCn1ncc(S(=O)(=O)N2CCN(c3cccc(OC)c3)CC2)c1C | -1 | 0.8 | 47 | i | 0.73 | -1.5 | -3 | -2 | 3.0
Cc1ccc(NC(=O)CCC(=O)NNC(=S)Nc2ccccc2)c(C)c1 | 4 | -0.7 | 30 | i | 0.71 | 2.1 | 9 | 0 | -0.4
CC(C)[C@H](NC(=O)c1ccc([N+](=O)[O-])cc1Cl)C(=O)N1CCN(C/C=C/c2ccccc2)CC1 | -7 | -3.8 | -10 | i | 0.68 | 2.2 | -21* | -11* | -1.1*
COP(=O)(OC)c1nc(-c2cccc3ccccc23)oc1NCCc1ccccc1 | 1 | 1.2 | 29 | . | 0.69 | -186 | . | . | .
Cn1c(=O)c2c(-c3ccccc3)n(-c3cc([N+](=O)[O-])ccc3N)cc2n(C)c1=O | . | -1.8 | . | i | . | . | -14* | -6.8* | 0.6*
CN(c1ccc(C(=O)N/N=C/c2cccc([N+](=O)[O-])c2)cc1)S(=O)(=O)c1ccccc1 | 20 | 1.5 | 14 | i | . | . | -1 | 16 | 0.8
COc1ccc(OCC(=O)NNC(=O)C(=O)Nc2ccccc2)cc1 | -9 | 7.0 | 1 | i | 0.69 | 0.5 | 6 | 8 | -2.4
O=C1N[C@H](Cc2ccccc2)COC(=O)[C@H](Cc2ccc(F)cc2)C/C=C\C[C@@H]1CC(=O)N(CCO)Cc1ccccc1 | 1 | 2.2 | -4 | i | . | -2.4 | -7 | -23 | 13
O=S1(=O)N=C(N2CCOCC2)c2ccccc21 | 1 | -1.1 | 0 | . | 0.74 | -57 | . | . | .
COc1ccc(Oc2cc(C(F)(F)F)cnc2C(N)=O)cc1 | -1 | -0.5 | -14 | . | 0.71 | -0.9 | . | . | .
CN(C)c1ccc(C2OC(=O)C(C)(C)C(=O)C2(C)C)cc1 (stereo not drawn) | 6 | 0.4 | 24 | . | 0.73 | 4.2 | . | . | .
Cc1cccc(S(=O)(=O)c2c(N)n(/N=C/c3ccco3)c3nc4ccccc4nc23)c1 | 1 | 8.2 | -17 | . | . | . | . | . | .
CCOC(=O)c1cnn(C)c1NC(=O)c1ccc([N+](=O)[O-])cc1 | -2 | -0.8 | -26 | i | 0.71 | 0.9 | -8 | 6 | -2.3
Brc1ccc(-c2noc(-c3ccccn3)n2)o1 | -2 | 0.9 | -21 | i | 0.61 | 1.0 | 8 | 2 | -1.2
CCc1ccc(-c2nc(NC(=S)NC(=O)c3cccs3)sc2C)cc1 | 0 | 1.8 | 4 | i | 0.78 | 1.4 | 5 | -5 | 0.3
Cc1noc(C)c1COc1ccc(C(=O)Nc2ncccc2O)cc1 | -3 | -0.8 | -3 | i | 0.65 | 2.3 | 4 | 5 | -1.8
C/C(Cl)=C/Cc1c(C)[nH]c2ccc(C)cc2c1=O | -4 | 22 | . | . | 0.67 | -11 | . | . | .
CCc1cccc2c(-c3csc(=NC)n3C)c[nH]c12 | 2 | 4.5 | 12 | i | 0.67 | 2.5 | 2 | -14 | 6.2
O=C(COC(=O)c1cc(Br)c(Br)s1)NCCC1=CCCCC1 | -5 | -1.8 | -13 | . | 0.73 | 3.4 | . | . | .
Cn1c(CSc2ncccn2)nnc1SCC(=O)N1CCCc2ccccc21 | 1 | -2.5 | -3 | . | 0.68 | 3.6 | . | . | .
CCOc1ccc(-c2csc(/C(C#N)=C\c3ccc(O)c([N+](=O)[O-])c3)n2)cc1 | 27 | 4.0 | -5 | . | 0.71 | 8.4 | . | . | .
O=C(O)c1ccc(-n2ccnc2)c([N+](=O)[O-])c1 | 0 | 3.1 | 1 | . | 0.68 | 1.6 | . | . | .
COc1ccc(OCC(=O)Nc2ccc(S(=O)(=O)N3CCCC3)cc2)cc1 | 7 | 3.1 | -8 | i | 0.62 | 0.4 | -14 | -11 | -3.1
O=C(NNC(=O)c1ccccc1O)c1ccc(Cl)cc1 | -14 | 1.3 | -15 | . | 0.72 | 0.7 | . | . | .
Cc1ccc(C(O)c2ncc(-c3ccccc3Cl)[nH]2)cc1 (stereo not drawn) | . | 2.0 | . | i | . | . | -2 | -19 | -4.2
Cc1cc([N+](=O)[O-])ccc1NC(=O)Nc1ccc(F)cc1F | 10 | 1.6 | 2 | i | 0.51* | 3.6 | -50 | -75 | -11
COc1ccc(CN2CCNC(=O)C2CC(=O)N(C)Cc2ccon2)cc1OC (stereo not drawn) | -4 | 0.0 | -6 | i | 0.71 | 3.1 | 15 | 9 | -1.1
COc1ccc(/C=N/Nc2nc(-c3ccc(Cl)cc3)cc(C(F)(F)F)n2)c(OC)c1 | 4 | 0.2 | 0 | . | . | . | . | . | .
O=C(NCC(c1ccco1)N1CCN(c2ccc(F)cc2)CC1)OCc1ccccc1 (stereo not drawn) | 16 | 4.6 | 16 | i | 0.62 | 3.0 | -16 | -20 | -6.3
Cc1nc(NC(=O)c2ccc([N+](=O)[O-])cc2Cl)sc1C(=O)N(C)C | 3 | -3.9 | -7 | . | 0.66 | 8.8 | . | . | .
